From PubChem
GLA inh pH 4.5: alpha-galactosidase A (human) inhibition, pH 4.5. P06280. purified enzyme, 4-MU-alpha-Gal fluorescence, pH 4.5. activity change, negative = inhibition, % at 105 µM. 230,000 tested, under 10 active. AID 1467; inconclusive = small, poorly fitted or top-dose-only inhibition, or a rising curve; inactive = flat fitted curve, though single readings scatter; no compound was filed as active;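 also: 0% = full activity with enzyme and -100% = basal without enzyme; dose as in the result columns while the protocol names 77 µM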
Target sequence (P06280 whole entry, looked up): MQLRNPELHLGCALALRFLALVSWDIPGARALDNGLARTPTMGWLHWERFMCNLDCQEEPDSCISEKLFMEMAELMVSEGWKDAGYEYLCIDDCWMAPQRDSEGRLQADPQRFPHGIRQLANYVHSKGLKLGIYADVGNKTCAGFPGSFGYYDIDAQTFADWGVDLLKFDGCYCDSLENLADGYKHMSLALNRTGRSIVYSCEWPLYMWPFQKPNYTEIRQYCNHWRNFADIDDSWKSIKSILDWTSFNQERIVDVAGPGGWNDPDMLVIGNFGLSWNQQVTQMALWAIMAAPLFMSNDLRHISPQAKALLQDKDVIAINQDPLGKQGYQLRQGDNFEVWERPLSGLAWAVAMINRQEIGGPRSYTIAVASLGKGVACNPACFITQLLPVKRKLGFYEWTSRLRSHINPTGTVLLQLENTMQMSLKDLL
miR-21 reporter: miR-21 reporter, rising signal | Potency, µM (doses to about 38.3 µM), without a hit: top-dose reporter change, positive = more light | HeLa miR-21 FLuc reporter, luciferase, 48 h | 340,000 tested, under 10 active | AID 2288; active = well fitted rising curve with a large enough effect; inconclusive = small, poorly fitted or top-dose-only effect; inactive = no such curve, though single readings can be large or run the other way;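 also: % of control where 0% means no effect; miR-21 action dims this reporter so a rising signal means less miR-21 action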
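HeLa miR-21-FLuc reporter line, endogenous miR-21; 2000 cells/well in DMEM/10% FBS; compound titration up to ~40uM final, 48 h, 37 degree Celsius; luciferase detection reagent, 15 min lysis, CCD luminescence.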
Rango release inh: prevents RanGTP from dissociating the Rango-importin beta complex | AID 540253 | Potency, µM (series often up to 46.1 µM), inactives show at the highest dose activity change, negative = inhibition | 340,000 compounds, 0.071% hits | Biochemical FRET Rango-importin beta, RanGTP-induced dissociation | O95149+P62826; active means falling FRET ratio curve, often poorly fitted, with flat reads before Ran was added; inconclusive means other falling curves, or compound fluorescence or quenching; inactive means flat or rising ratio curve;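 also: potency is read from the fitted curve at half-maximal effect; % of control where 0% means no effect; nearly all actives have a fitted effect of over 45% in size; -100% = wells without RanGTP and RCC1; the record marks most hits as doubtful in a second field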
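Rango FRET biosensor (snurportin-1 IBB flanked by N-terminal EYFP and C-terminal CFP10) at 0.1 uM, with 0.25 uM importin beta in PBS, 1mM DTT, 0.02% Tween-20, 0.1% BSA. 0.6 uM Ran, 2mM GTP and 0.2 uM RCC1 were then added for 45 min at room temperature. Inhibition read as loss of FRET rise.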
Rango-impB inh: inhibitors of Rango-importin beta complex formation; 340,000 compounds, 0.031% hits; Potency, µM (doses to about 92.2 µM), without a hit: at the top dose inhibition of complex formation; AID 540263; Rango CFP/YFP FRET sensor + importin beta, 45 min; Q14974; active = rising FRET ratio curve, often small or poorly fitted; inconclusive = mostly compound fluorescence or quenching in the first reads; inactive = flat curves in all reads;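 also: potency is read from the fitted curve at half-maximal effect; 0% = DMSO wells and 100% = buffer wells lacking importin beta; nearly all actives have a fitted effect of over 15% in size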
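FRET biosensor Rango (snurportin 1 IBB between N-terminal EYFP and C-terminal Cerulean), 50 nM in PBS/1 mM DTT/0.02% Tween-20/0.1% BSA, preincubated 5 min RT with compound; 0.125 microM importin beta added, 45 min RT, CFP/YFP FRET ratio read.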
* = called active by the depositor; ? = inconclusive; · = no result given.

GLA inh pH 4.5	miR-21 reporter	Rango release inh	Rango-impB inh	Compound
1	-2%	-5%	0.0%	COc1ccc(CC(=O)NCC2(N3CCCCC3)CCCCC2)cc1
-4	0%	-8%	3.8%	Cc1cc(NC(=O)CSc2nccn2-c2ccc([N+](=O)[O-])cc2)no1
3	-6%	7%	3.8%	COc1ccc(NCc2nnc(SCC(=O)NCc3ccco3)n2-c2ccccc2OC)cc1
·	0%	-10%	4.7%	O=C(O)c1ccccc1CSc1nnnn1-c1ccccc1
·	2%	-4%	0.9%	O=C(CN1C(=O)NC2(CCCC2)C1=O)Nc1ccc(Cl)cc1C(F)(F)F
·	·	12%	-0.3%	C[C@H](CO)N1C[C@H](C)[C@@H](CN(C)Cc2ccc(C(=O)O)cc2)Oc2ccc(NS(=O)(=O)c3cn(C)cn3)cc2C1=O
10	-1%	2%	-0.8%	CCCCn1c(SCC(=O)NCc2ccco2)nc2cc(S(N)(=O)=O)ccc21
3	-18%	·	·	CCOc1ccc(C2=NNC(c3cccs3)=Nc3ccc(OCC)cc32)cc1
2	6%	-15%	-2.8%	CC(C)C(C)NC(=O)COc1ccc(S(=O)(=O)N2CCOCC2)cc1Cl (stereo not given)
·	·	0%	-1.6%	NC(=O)Nc1ccc(C(=O)N2CCN(S(=O)(=O)Cc3ccccc3)CC2)cc1
·	-1%	-3%	1.6%	COc1ccc(CCC(=O)Nc2nc(C)c(C(=O)N(C)C)s2)cc1
9	-26%	-10%	0.0%	C/C(CC(=O)Nc1ccc(N(C)C)cc1)=N\NC(=O)c1cnccn1

Reprinted from the listing, 2 compounds:
GLA inh pH 4.5	miR-21 reporter	Rango release inh	Rango-impB inh	Compound
·	2%	-4%	0.9%	O=C(CN1C(=O)NC2(CCCC2)C1=O)Nc1ccc(Cl)cc1C(F)(F)F
·	·	12%	-0.3%	C[C@H](CO)N1C[C@H](C)[C@@H](CN(C)Cc2ccc(C(=O)O)cc2)Oc2ccc(NS(=O)(=O)c3cn(C)cn3)cc2C1=O

Looked up above:
Reading for C/C(CC(=O)Nc1ccc(N(C)C)cc1)=N\NC(=O)c1cnccn1 under GLA inh pH 4.5: 9
Reading for COc1ccc(CCC(=O)Nc2nc(C)c(C(=O)N(C)C)s2)cc1 under Rango-impB inh: 1.6%
Reading for CC(C)C(C)NC(=O)COc1ccc(S(=O)(=O)N2CCOCC2)cc1Cl (stereo not given) under Rango release inh: -15%

Further records.
GLA inh pH 4.5	miR-21 reporter	Rango release inh	Rango-impB inh	Compound
4	-5%	-3%	-2.1%	O=C(NNc1cccc(Cl)n1)Nc1ccccc1F
-1	0%	11%	-0.8%	Cc1ccc(CNC(C)c2ccccc2)cc1 (stereo not given)
2	0%	-4%	0.8%	COc1cccc(C(=O)NNC(=O)CCc2ccccc2)c1
·	·	9%	-3.7%	CC(C)CN(C(=O)CSc1nc(-c2ccccc2)cn1N)c1c(N)n(Cc2ccccc2)c(=O)[nH]c1=O
-2	-4%	4%	0.8%	O=S(=O)(NCCc1csc(-c2cccnc2)n1)c1cccs1
-3	0%	-8%	-0.6%	Cc1nnc(NC(=O)CSc2ncnc3scc(-c4ccccc4)c23)s1
-8	-30%	0%	2.1%	O=C(Nc1ccc(N2CCCCC2)cc1)C(Cl)c1ccccc1 (stereo not given)
12	3%	4%	-3.7%	CC(=O)Nc1ccc2nsnc2c1
-20	-9%	3%	-2.3%	CC1Cc2ccccc2N1C(=O)COC(=O)CNC(=O)c1ccc(Br)o1 (stereo not given)
4	-12%	2%	-4.3%	C#CCCCCCCC#CCN(C)C
6	-4%	7%	-1.7%	COC(=O)c1cn(Cc2ccc(C(F)(F)F)cc2)cc(F)c1=O
-13	-22%	?	?	CCN(CC)c1ccc2cc(-c3nc4ccccc4[nH]3)c(=O)oc2c1

Fetched by structure from the entries so far (3):
GLA inh pH 4.5	miR-21 reporter	Rango release inh	Rango-impB inh	Compound
3	-6%	7%	3.8%	COc1ccc(NCc2nnc(SCC(=O)NCc3ccco3)n2-c2ccccc2OC)cc1
9	-26%	-10%	0.0%	C/C(CC(=O)Nc1ccc(N(C)C)cc1)=N\NC(=O)c1cnccn1
4	-5%	-3%	-2.1%	O=C(NNc1cccc(Cl)n1)Nc1ccccc1F

Next structures:
GLA inh pH 4.5	miR-21 reporter	Rango release inh	Rango-impB inh	Compound
0	14%	0%	2.2%	O=C(C1CCC(CNS(=O)(=O)c2cccc3nsnc23)CC1)N1CCN(c2ccccn2)CC1 (stereo not given)
-6	-1%	0%	1.2%	CSc1nc2ccc(NS(=O)(=O)c3c(Cl)cccc3Cl)cc2s1
-18	-1%	-5%	1.5%	CCOc1ccc(NC(=O)CN2C(=O)CSC2=O)cc1
-3	26%	-6%	-2.3%	O=C(Nc1ccc(F)cc1)Nc1ccccc1N1CCCCC1
·	5%	2%	4.8%	CC12CC3(C)CC(C)(C1)CC(C(=O)NCc1cccnc1)(C2)C3
·	·	14%	?	CCOC(=O)[C@H]1[C@H]2COc3ccc(C)cc3[C@@H]2N2C(=O)CN(Cc3ccc(OC)cc3)C(=O)[C@@]12C
-5	-6%	8%	0.6%	O=C(O)CCSc1nnc(COc2cccc3ccccc23)n1-c1cccc(Cl)c1
-3	-5%	16%	-4.5%	COc1ccc(CCN(C)C2CC(=O)N(c3ccccc3)C2=O)cc1OC (stereo not given)
·	-1%	10%	2.3%	CC1CCCC(NC(=O)C2CC(=O)N(Cc3ccccc3)C2)C1C (stereo not given)
3	6%	0%	-7.3%	CCOc1ccc(CCNC(=O)COC(=O)c2cccnc2OCC)cc1OCC
6	-1%	-13%	-1.9%	Cc1ccc(/C=C(\C#N)C(=O)NCCN2CCOCC2)cc1
-6	-42%	-5%	-0.1%	COC(=O)C1=C(O)/C(=C/c2cccc(OC)c2O)N=C1C
-2	·	7%	3.2%	COc1cc(OC)c2c(-c3cccc(-c4ccc(OC)c(F)c4)c3)cc(=O)oc2c1
-12	3%	31%	-3.9%	CSc1nnc(C)c(=O)n1COC(=O)/C=C/c1ccccc1
-12	11%	?	?	COC(=O)CSc1nc(N)c2c3c(sc2n1)C(c1ccccc1)SC(c1ccccc1)C3 (stereo not given)
1	0%	?	7.4%	O=C(CCCOc1ccccc1)Nc1ccc(S(=O)(=O)N2CCOCC2)cc1
-1	-7%	-12%	0.8%	CC1CCc2c(sc3nc(CN4CCOCC4)nc(N4CCc5ccccc5C4)c23)C1 (stereo not given)
·	2%	0%	-3.5%	COC(=O)c1c(NC(=O)CN2C(=O)C(=O)N(CC(C)C)C2=O)sc(C)c1C
4	0%	-7%	-5.4%	Cc1nc2ncnn2c(C)c1CCC(=O)N1CCN(C(=O)c2ccco2)CC1
7	0%	·	·	O=C(Cc1c(Cl)cccc1Cl)NC1=NCCS1
1	-1%	11%	2.1%	Oc1ccc(N2CCN(c3ncnc4sc(-c5ccccc5)cc34)CC2)cc1
6	-2%	16%	3.0%	Cc1ccc(C2(C)NC(=O)N(CC(=O)NCc3cccs3)C2=O)cc1 (stereo not given)
2	0%	0%	5.4%	CCN(CC)S(=O)(=O)c1ccc(/C=C/C(=O)O)cc1
·	·	-31%	0.0%	O=c1cc(-c2ccsc2)oc2ccccc12

Filtered by structure, the entries above with a COOH group (four)
GLA inh pH 4.5	miR-21 reporter	Rango release inh	Rango-impB inh	Compound
·	0%	-10%	4.7%	O=C(O)c1ccccc1CSc1nnnn1-c1ccccc1
·	·	12%	-0.3%	C[C@H](CO)N1C[C@H](C)[C@@H](CN(C)Cc2ccc(C(=O)O)cc2)Oc2ccc(NS(=O)(=O)c3cn(C)cn3)cc2C1=O
-5	-6%	8%	0.6%	O=C(O)CCSc1nnc(COc2cccc3ccccc23)n1-c1cccc(Cl)c1
2	0%	0%	5.4%	CCN(CC)S(=O)(=O)c1ccc(/C=C/C(=O)O)cc1

Additional compounds
GLA inh pH 4.5	miR-21 reporter	Rango release inh	Rango-impB inh	Compound
-6	-5%	-14%	4.4%	COc1cccc2cc(C(C)OC(=O)Nc3ccc(C)cc3)oc12 (stereo not given)
·	7%	?	-7.3%	Cc1cccn2c(=O)c3cc(C(=O)NCc4ccc(F)cc4)c(=N)n(CC4CCCO4)c3nc12 (stereo not given)
·	12%	7%	0.3%	Cc1[nH]c(C)c(S(=O)(=O)Nc2ccc(OC(F)(F)F)cc2)c1C(=O)N1CCCCC1
-3	1%	16%	-3.6%	CSc1nnc(-c2ccccc2)n1N
-3	-2%	?	-2.1%	Cc1cccc2cc(C#N)c(N3CCCC3)nc12
-24	-3%	4%	8.5%	CCn1c(SC)nnc1-c1nnc(SC)n1CC
-2	0%	14%	-0.2%	CCCCn1c(SCC(=O)Nc2cccc(C)n2)nnc1-c1ccco1
0	-9%	21%	4.4%	Cc1sc2c(=O)n3c(nc2c1C(=O)NCCCN1CCOCC1)CCCCC3
-4	?	21%	-4.3%	Cc1ccc(-c2csc3ncn(-n4c(C)ccc4C)c(=O)c23)o1
2	-1%	-15%	3.7%	O=C1CC(N2CCN(Cc3ccccc3)CC2)C(=O)N1c1ccccc1 (stereo not given)
·	·	-9%	-1.7%	Cc1ccc(C2Cc3cc(O)c(O)cc3CN2)cc1 (stereo not given)
6	-11%	-3%	-0.3%	C/C(CC(=O)Nc1ccc(N(C)C)cc1)=N\NC(=O)C(=O)NCc1ccccc1
4	1%	-10%	-2.2%	COc1ccccc1-c1nc(C#N)c(N2CC(C)CC(C)C2)o1 (stereo not given)
-1	-1%	-4%	-1.4%	COc1ccc(Cl)cc1N1Cc2ccccc2C1
-5	10%	-9%	3.9%	COc1cccc(-c2cc(C(=O)Nc3cc(C)n(Cc4ccc(Cl)cc4)n3)no2)c1
-3	-2%	19%	-1.7%	CN(NC(=O)c1ccc(Cl)cc1Cl)C1=NS(=O)(=O)c2ccccc21
·	1%	-6%	-2.5%	Cn1nnnc1SCC(=O)Nc1nc(-c2ccc(F)c(F)c2)cs1
-3	-16%	-13%	?	O=c1c2ccccc2[nH]c(=S)n1CCC1=CCCCC1
·	5%	-5%	4.1%	O=C(Nc1ccc(Nc2ccccc2)cc1)c1ccc(Br)cc1
-3	-8%	1%	0.9%	CNC(=O)Nc1ccccc1C(=O)Nc1ccccc1
·	·	2%	-1.8%	Cn1c(-c2ccccc2)cc2onc(-c3ccccc3)c2c1=O
4	-10%	-24%	-1.4%	CC(C)C[C@@H]1NC(=O)[C@H](C(C)C)NC(=O)c2cc([N+](=O)[O-])cc(I)c2OCC[C@@H](C(N)=O)NC1=O
·	·	-11%	-1.2%	COc1cc(/C=N/NC(=O)c2cccc(C)c2)ccc1OCC(=O)Nc1ccccc1
·	0%	-19%	1.1%	COc1cc(C2/C(=C(\O)c3ccc4c(c3)OCCO4)C(=O)C(=O)N2CCN2CCOCC2)cc(OC)c1OC (stereo not given)
3	?	0%	-0.5%	O=C(O)c1ccccc1C(=O)Nc1ccc(Oc2cccc3ccccc23)cc1
·	·	-20%	?	CC(Oc1ccccc1)C(=O)N1CCN(c2ccc(N3CCCCC3)nn2)CC1 (stereo not given)
0	0%	-16%	-5.2%	COc1cc(NC(=O)CN2C(=O)NC(C)(CCC(C)C)C2=O)cc(OC)c1 (stereo not given)
6	-39%	2%	-2.3%	CCCCc1ccc(NC(=S)N2CCCC(CO)C2)cc1 (stereo not given)
·	0%	-11%	3.8%	COc1cc2[nH]c(=O)n(Cc3ccc(C(=O)N4CCC(N5CCCCC5)CC4)cc3)c(=O)c2cc1OC
4	-1%	-6%	-2.7%	Cc1ccccc1NS(=O)(=O)c1ccc(NC(=O)c2ccco2)cc1
-13	-10%	-6%	2.7%	COc1ccc(OCC(=O)NCCC2=CCCCC2)c([N+](=O)[O-])c1
7	-5%	9%	-1.4%	COc1ccc(C(=O)N/N=C/c2c(C)[nH]c(=O)[nH]c2=O)cc1

An excerpt; the hit share may differ from the screen's.
